Marburg entry inh: Marburg virus entry inhibition; AID 540276; Potency, µM (highest dose often 37.8 µM), without a hit: at the top dose activity change, negative = inhibition, actives largely listed as inhibitors; Marburg virus pseudotyped entry inhibition, cell reporter; control for the full effect not named in the record; about a third of the inactives were read at about 46 µM; hit rate 1.8% among 300,000; active = well fitted inhibition curve with a large enough effect; inconclusive = small, poorly fitted or top-dose-only effect, or effect the other way; inactive = flat fitted curve, though single readings scatter; tested in HEK293 cells; about a fifth of its hits are not listed in these tables; note: luciferase read-out
Starred values were filed as active, the others as inactive; ? = inconclusive; & = joins results of further samples; [ ] = another dose, or the depositor's remark. % is set by controls: 0 for no effect and ±100 for the full control effect; potency is the fitted concentration of half-maximal effect. The list is partial, so the mix of outcomes need not match the whole.

SMILES | Marburg entry inh
CC(=O)OC[C@H]1O[C@H](c2ccc(C(C)=O)cc2)C=C[C@H]1OC(C)=O | 2%[14.2 µM]
O=C1N=C(O)CN1/N=C/C1C=CC(c2ccc([N+](=O)[O-])cc2)O1 (stereo not drawn) | 16%
CCCCc1nc2c(c3c1C[C@H](C)OC3)CN(C(=O)c1ccco1)CC2 | 3%&3%&3%[14.2 µM]
CO[C@@H]1c2ccccc2[C@H]2C(C(=O)O)c3c(n(C)c4ccccc34)[C@H]2[C@H]1C (stereo partly drawn) | 29%[14.2 µM]
N#C/C(C(=O)NCc1ccco1)=C1\S[C@@H](Cc2ccc(Cl)cc2)C(=O)N1c1ccccc1 | 16%
COc1ccc(O[C@H]2C=C[C@@H](c3ccccc3)O[C@H]2COC(=O)CC/C(C)=N/OCC[C@@H]2C=C[C@H](OC(C)=O)[C@H](COC(C)=O)O2)cc1 | ?
O=C1[C@H]2[C@H]3[C@H](O)[C@H](O)C/C(=N\OCc4ccccc4)[C@@H]3CC[C@H]2C(=O)N1C1CCCCC1 | -14%[14.2 µM]
C=CC[C@@H]1C=C[C@H](ON=C(C)CCN2CCCc3nc(C)c(C)cc32)[C@H](CO)O1 | 23%[14.2 µM]
CCN(CC)CCCN1C(=O)C(=O)/C(=C(\O)c2ccc(Cl)cc2)[C@@H]1c1ccccn1 | 16%
C[C@H]1CC[C@H]2C(=O)N(Cc3ccc(Cl)cc3)C[C@H](O)CN2[C@H]1c1ccc(Br)cc1 | -2%[14.2 µM]
O=C1[C@H]2[C@H]3[C@H](O)[C@H](O)C/C(=N/OCc4ccccc4)[C@@H]3CC[C@@H]2C(=O)N1Cc1ccc2c(c1)OCO2 | -17%[14.2 µM]
CC(C)=CCCC(C)=CC=CC1=CC2(C)CC1(C)C(C=C(C)CCC=C(C)C)CC2=O (stereo not drawn) | ?
CCOC(=O)CCCNC(=O)N1CCc2nc(COc3ccccc3)c3c(c2C1)CO[C@@H](C)C3 | 0%&0%&0%[14.2 µM]
CCCCCC(=O)N1C[C@@H](n2cc(-c3ccc(F)cc3)nn2)[C@H](O)C[C@H]1c1ccc(C)cc1 | ?
CCCC[C@H]1CN2[C@H](c3ccc(Br)cc3)[C@H](C)CC[C@H]2C(=O)O1 | 2%[14.2 µM]
COc1cccc([C@H]2Oc3ccc(OC)cc3/C(=N\O[C@H](C)c3cn([C@H](CO)Cc4ccccc4)nn3)[C@@H]2O)c1 | 5%[14.2 µM]
COC(=O)C1=C(C(=O)OC)[C@@H]2N(C)c3ccccc3[C@@]23CCC(=O)N(CC(C)C)C3=N1 | 8%[14.2 µM]
COC(=O)C1=C(C)N(Cc2ccco2)C(=O)NC1c1ccco1 (stereo not drawn) | 0%[14.2 µM]
CC1=CC(Cc2ccc(C)cc2)C(=O)N=N1 (stereo not drawn) | 0%
COc1cccc(N2C(=O)C(O)=C(C(C)=O)[C@@H]2c2ccc(OC)c(OC)c2)c1 | 7%
CC12C=C(C=CC=Cc3ccco3)C(C)(C1)C(C=Cc1ccco1)CC2=O (stereo not drawn) | ?
CCOC1=C(NC(=O)C(C)(C)C)CC(OCC)=C(N2CCOCC2)C1 | 7%[46.1 µM]
C=CCCCN1C(=O)NC(c2ccccc2)C(C(=O)OC)=C1C (stereo not drawn) | -29%[14.2 µM]
O=C(O)C[C@H](SCc1ccc(C(=O)O)o1)C(=O)O | 0%
C=CC1=C2C=C(C3CC3)N(C3CCCCC3)C=C2C(=O)C(C)(OC(=O)c2ccco2)C1=O (stereo not drawn) | 19%&19%[14.2 µM]

Two entries from above, in markdown.
| SMILES | Marburg entry inh |
| --- | --- |
| C=CC1=C2C=C(C3CC3)N(C3CCCCC3)C=C2C(=O)C(C)(OC(=O)c2ccco2)C1=O (stereo not drawn) | 19%&19%[14.2 µM] |
| CC(C)=CCCC(C)=CC=CC1=CC2(C)CC1(C)C(C=C(C)CCC=C(C)C)CC2=O (stereo not drawn) | ? |

A few values from the list:
Value for O=C(O)C[C@H](SCc1ccc(C(=O)O)o1)C(=O)O under Marburg entry inh: 0%
Value for COC(=O)C1=C(C(=O)OC)[C@@H]2N(C)c3ccccc3[C@@]23CCC(=O)N(CC(C)C)C3=N1 under Marburg entry inh: 8%[14.2 µM]
Value for N#C/C(C(=O)NCc1ccco1)=C1\S[C@@H](Cc2ccc(Cl)cc2)C(=O)N1c1ccccc1 under Marburg entry inh: 16%
Value for CC(=O)OC[C@H]1O[C@H](c2ccc(C(C)=O)cc2)C=C[C@H]1OC(C)=O under Marburg entry inh: 2%[14.2 µM]

Returning to the listing, starting five compounds before the break.
SMILES | Marburg entry inh
CC12C=C(C=CC=Cc3ccco3)C(C)(C1)C(C=Cc1ccco1)CC2=O (stereo not drawn) | ?
CCOC1=C(NC(=O)C(C)(C)C)CC(OCC)=C(N2CCOCC2)C1 | 7%[46.1 µM]
C=CCCCN1C(=O)NC(c2ccccc2)C(C(=O)OC)=C1C (stereo not drawn) | -29%[14.2 µM]
O=C(O)C[C@H](SCc1ccc(C(=O)O)o1)C(=O)O | 0%
C=CC1=C2C=C(C3CC3)N(C3CCCCC3)C=C2C(=O)C(C)(OC(=O)c2ccco2)C1=O (stereo not drawn) | 19%&19%[14.2 µM]
O=C(O)c1ccc(-n2cccc2/C=N/NC(=O)c2cc3cc(Br)ccc3o2)cc1 | -12%[46.1 µM]
COc1cccc(C(=O)N2[C@@H](C(C)C)COc3cc(Br)ccc3S2(=O)=O)c1 | ?
Cc1ccc(CN2[C@@H](C)[C@@H](c3ccccc3)Oc3c(Cl)cccc3S2(=O)=O)cc1 | ?
CC(C)(C)N1C(=O)[C@@H]2[C@H]3[C@H](O)[C@H](O)CC(=NOCc4ccccc4)[C@H]3CC[C@H]2C1=O | -9%[14.2 µM]
COC(=O)CC=C1c2ccccc2[C@@H](NC(=O)OC)[C@@H]1C | 20%[14.2 µM]
C#CCCCO/N=C1\C[C@@H](O)[C@@H](O)[C@@H]2[C@@H]3C(=O)N(Cc4ccc5c(c4)OCO5)C(=O)[C@@H]3CC[C@H]12 | ?
COCCN1C(=O)NC(c2ccc(Br)cc2)C(C(=O)OC)=C1C (stereo not drawn) | ?
O=C1C2=C(C(=O)c3ccccc31)[C@H]1O[C@](CCCCN3C(=O)c4ccccc4C3=O)(Cc3ccccc31)O2 | ?
Cn1c(=O)c2c3c(sc2n2c(SCC(N)=O)nnc12)C[C@H](C(C)(C)C)CC3 | -1%
C1CCC(C2C3=C(NC4NCNN42)C2=C(CCCC2)CCC3)CC1 (stereo not drawn) | 9%
O=C1[C@@H]2[C@@H](C(=O)N1CC(O)COCc1ccccc1)[C@H]1C=C[C@@H]2C1 (stereo partly drawn) | ?
C#CCCCON=C1C[C@@H](O)[C@H](O)[C@H]2[C@@H]3C(=O)N(Cc4ccc5c(c4)OCO5)C(=O)[C@@H]3CC[C@H]12 | ?
COC(=O)[C@@]1(C=C[C@@H](C)[C@H](OC)c2ccccc2Br)[C@@H]2OCCC[C@@H]21 | -4%[14.2 µM]
CC(=O)OC[C@H]1O[C@H](C#CC2=CCCCC2)C=C[C@H]1OC(C)=O | ?
CCN1C(=O)[C@@H]2[C@H]3[C@H](O)[C@H](O)CC(=NOC[C@H]4O[C@H](c5ccccc5)C=C[C@H]4Oc4ccc(OC)cc4)[C@@H]3CC[C@H]2C1=O | -28%[14.2 µM]
CCC(=O)CC(NC(=O)OC)c1ccccc1 (stereo not drawn) | ?
COC(=O)N[C@@H](C=Cc1ccco1)[C@]1(C(=O)OC)CCCC1=O | 3%[14.2 µM]
COc1ccc(-c2nc3c(c4c2C[C@H](c2ccccc2)OC4)CN(C(=O)N[C@@H](C)C(=O)OC(C)C)CC3)c(C)c1 | ?
CCOc1cc(/C=C2/SC(=N)N(c3nccs3)C2=O)ccc1OCCN1CCOCC1 | ?
O=C1C[C@H](NCc2ccc3c(c2)OCO3)C(=O)N1Cc1ccc2c(c1)OCO2 | 26%
OC[C@@H]1NC[C@@H](O)[C@@H](O)[C@H]1O | 7%
C=C(C)C(=O)OC[C@H]1CN2[C@@H](CC[C@@H](C)[C@@H]2c2ccc(Br)cc2)C(=O)O1 | ?
COC(=O)C[C@H]1c2ccccc2C2=C(C[C@@H](C)[C@H]3C(=O)NC(=O)[C@@H]23)N1C(=O)OC | 3%[14.2 µM]
CN1c2ccccc2[C@@]2(O)C(=O)[C@@]1(C)[C@@H]1c3ccccc3C[C@H]12 | -28%[14.2 µM]
NC(=O)c1ccc(OC[C@H](O)CN2CC=C(c3ccc(F)cc3)CC2)cc1 | -11%

Additional entries
SMILES | Marburg entry inh
COC(=O)C1=C(N)Oc2cc(C)[nH]c(=O)c2[C@@H]1c1ccncc1 | 3%
C[C@@H]1C(c2ccccc2)CC(=O)C(=O)C[C@@H]1C(=O)N1CCCC1 (stereo partly drawn) | 62%[14.2 µM]
COC1=C[C@H](C(=O)NC2CCN(Cc3ccccc3)CC2)C(C)C(c2ccccc2)CC1=O (stereo partly drawn) | -13%[14.2 µM]
C/C(CCN1CCCc2nc(C)c(C)cc21)=N\OC[C@@H](O)[C@@H]1O[C@@H]2OC(C)(C)O[C@@H]2[C@H]1O | -8%[14.2 µM]
COC(=O)C1=C[C@@]2(c3ccc(OC)cc3[C@@H](OC)[C@@H]2C)[C@@H]2C=C[C@@H]1C2 | ?
CCC(=N[C@H](CC)CO)C1=C(O)CC(C)(C)CC1=O | 7%
CC(C)C[C@H]1COc2cc(Br)ccc2S(=O)(=O)N1Cc1ccc(Cl)cc1 | ?
COc1ccccc1-n1c(N)c(C(=O)NC[C@H]2CCCO2)c2nc3ccccc3nc21 | -8%
Cc1ccccc1N1C(=O)C[C@@H](Sc2nnc(-c3ccccc3)o2)C1=O | 9%
COc1ccc(/C=C/C2=CC3(C)CC2(C)C(c2ccc(OC)cc2)CC3=O)cc1 (stereo not drawn) | -13%[14.2 µM]
CCOC(=O)CSC1=C(C#N)[C@H](c2ccc(OC)cc2)C2=C(CC(C)(C)CC2=O)N1 | -13%
C=CCOC(=O)C(C(C)=O)C(NC(=O)OC)c1cccc(C(F)(F)F)c1 (stereo not drawn) | ?
COC(=O)[C@H]1C[C@@]2(CC=C(C)C)C(=O)[C@@](CC=C(C)C)(C(=O)C(C(=O)c3ccccc3)=C2OC)C1(C)C | ?
COc1ccc(/C(O)=C2\C(=O)C(=O)N(Cc3ccco3)[C@@H]2c2cccs2)cc1 | -1%
CCOC(=O)C1=C(C)N=C2S[C@H](C)C(=O)N2[C@@H]1c1ccc(OC(C)=O)c(OC)c1 | -13%
CN(C)c1nc2n(c(=O)n1)[C@H](C#N)CS2 | 2%
CC(C)[C@@H](OCc1ccccc1)[C@H](C)CO/N=C1/[C@H]2OC2[C@@H](O)[C@H]2[C@H]1CCn1c(=O)n(-c3ccccc3)c(=O)n12 (stereo partly drawn) | 25%[14.2 µM]
C[C@@H]1C=CCCO[C@]12C(=O)N(Cc1ccc(F)cc1)c1cccc(Br)c12 | -21%[14.2 µM]
C=CC1=C2C=C(C3CC3)N(CC(C)C)C=C2C(=O)C(C)(OC(=O)c2ccco2)C1=O (stereo not drawn) | -40%&-40%[14.2 µM]
COc1cc(OC)c([C@@H]2O[C@H](CO)[C@@H](O)[C@H](O)[C@@H]2O)c(OC)c1 | ?
CCN1C(=O)[C@@H]2[C@H]3[C@H](O)[C@H](O)CC(=NOCC[C@@H]4C=C[C@H](OC(C)=O)[C@@H](COC(C)=O)O4)[C@@H]3CC[C@H]2C1=O | -15%[14.2 µM]
C=CC[C@@H]1C=C[C@@H](O/N=C\C[C@@H]2C=C[C@H](OC(C)=O)[C@H](COC(C)=O)O2)[C@@H](CO)O1 | 4%[14.2 µM]
COc1ccc(/C(O)=C2\C(=O)C(=O)N(CCCN(C)C)[C@H]2c2ccccc2)cc1OC | 7%
COC(=O)[C@H]1[C@@H](c2ccccc2)NC(=O)N(Cc2ccccc2)[C@@H]1C | ?
C#CCCCON=C1C[C@@H](O)[C@H](O)[C@H]2[C@@H]3C(=O)N(C[C@@H]4CCCO4)C(=O)[C@@H]3CC[C@@H]12 | 3%[14.2 µM]

Next part
SMILES | Marburg entry inh
C=CC[C@@H]1C=C[C@@H](Oc2ccc(OC)cc2)[C@@H](CO)O1 | -15%[14.2 µM]
Cc1cc(N[C@@H](CC(C)C)C(=O)O)nc(Cc2ccccc2)n1 | 22%
CCN1C(=O)[C@H]2[C@H]3[C@H](O)[C@H](O)C/C(=N/OC[C@@H](C)[C@H](OCc4ccccc4)C(C)C)[C@@H]3CC[C@@H]2C1=O | 1%[14.2 µM]
CC(=O)Nc1ccc(S(=O)(=O)N2CCc3nc(COc4ccccc4)c4c(c3C2)CO[C@@H](C)C4)cc1 | ?
CCOC(=O)[C@H](C)Sc1nc(-c2cccs2)ccc1C#N | -1%
COC(=O)c1ccc([C@H]2/C(=C(\O)c3ccc(OC)cc3)C(=O)C(=O)N2Cc2ccco2)cc1 | -4%
CC1=C[C@@H](C)OC2(C1)C(=O)N(CC1CC1)c1cccc(Br)c12 (stereo partly drawn) | 3%[14.2 µM]
CC(=O)[C@]12C[C@@H]3CCCN(C(=O)N[C@@H]1c1ccccc1)[C@@H]32 | 0%[14.2 µM]
COC(=O)c1c(C(=O)OC)c2c3ccccc3cc(-c3ccccc3)n2c1C(=O)OC | -23%[14.2 µM]

Molecules listed so far with fluorine:
SMILES | Marburg entry inh
CCCCCC(=O)N1C[C@@H](n2cc(-c3ccc(F)cc3)nn2)[C@H](O)C[C@H]1c1ccc(C)cc1 | ?
NC(=O)c1ccc(OC[C@H](O)CN2CC=C(c3ccc(F)cc3)CC2)cc1 | -11%
C=CCOC(=O)C(C(C)=O)C(NC(=O)OC)c1cccc(C(F)(F)F)c1 (stereo not drawn) | ?
C[C@@H]1C=CCCO[C@]12C(=O)N(Cc1ccc(F)cc1)c1cccc(Br)c12 | -21%[14.2 µM]
